# Screening data (PubChem BioAssay)
# RE007 growth inh: less growth of the S. pombe RE007 Vpr strain; S. pombe RE007 Vpr strain, BacTiter-Glo ATP luminescence, 24 h; control for the full effect not named in the record; Potency, µM (series often up to 92.2 µM), inactives show at the highest dose activity change, negative = less growth; hit rate 0.21% among 360,000; active = well fitted falling curve with a large enough effect; inconclusive = small, poorly fitted or top-dose-only effect; inactive = no such curve, though single readings can be large or run the other way;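 further: on the % scale 0 is the no-effect control and ±100 the full control effect; nearly all actives have a fitted effect of over 50% in size; the assay follows cell death caused by Vpr and the record does not say whether a fall means rescue or toxicity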
#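 Fission yeast strain RE007, carrying one chromosomally integrated HIV-1 vpr copy, was seeded at OD 0.01 in PMG+AL medium with 23 nL pinned compound. After 24 h at 30 °C and 99% humidity, viability was read by BacTiter-Glo luminescence.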
# SARS PLP yeast: inhibitors of SARS-CoV papain-like protease in yeast. hit rate 0.19% among 330,000. Potency, µM (doses to about 32.9 µM), inactives show at the top dose activity, positive = growth rescue. S. cerevisiae expressing SARS-CoV PLpro, growth rescue; control for the full effect not named in the record; active means well fitted rising curve with a large enough effect; inconclusive means small, poorly fitted or top-dose-only effect; inactive means no such curve, though single readings can be large or run the other way; further: 0% is about no effect; nearly all actives have a fitted effect of over 55% in size; growth read by luminescence after 48 h
# 2A StopGo: FMDV 2A StopGo reporter, luciferase signal | human cells with a luciferase reporter of 2A StopGo recoding; control for the full effect not named in the record | Potency, µM (doses to about 57.9 µM), without a hit: at the highest dose signal change, negative = less light | hit rate 1.2% among 410,000; active = well fitted falling curve with a large enough effect; inconclusive = small, poorly fitted or top-dose-only effect; inactive = no such curve, though single readings can be large or run the other way; tested in HEK293T cells; further: on the % scale 0 is the no-effect control and ±100 the full control effect; nearly all actives have a fitted effect of over 45% in size; luciferase light after 4 h
# Cruzain inh noDet: blocks cruzain activity in detergent-free assay; hit rate 2.3% among 200,000; purified cruzain, Z-FR-AMC fluorescence, no detergent; Potency, µM, for the others: max response, negative = inhibition, usual class: inhibitors; AID 1476; P25779;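 further: plate controls were enzyme without inhibitor for no effect and buffer without enzyme for full effect; nearly all actives have a fitted effect of over 40% in size; top concentration of the series not given in the record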
# Target sequence (P25779 123-467 limits assumed): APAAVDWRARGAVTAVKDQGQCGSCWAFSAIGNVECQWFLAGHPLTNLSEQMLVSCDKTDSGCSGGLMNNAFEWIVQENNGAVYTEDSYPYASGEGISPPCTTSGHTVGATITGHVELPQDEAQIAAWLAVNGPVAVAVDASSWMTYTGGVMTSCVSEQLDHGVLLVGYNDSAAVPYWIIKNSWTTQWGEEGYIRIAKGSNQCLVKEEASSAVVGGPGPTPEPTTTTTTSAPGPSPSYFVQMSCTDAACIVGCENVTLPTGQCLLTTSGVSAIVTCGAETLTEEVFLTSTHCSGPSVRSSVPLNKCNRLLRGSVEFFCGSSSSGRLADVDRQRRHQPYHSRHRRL
#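 Purified cruzain at 1.5 nM, pre-incubated 15 min with compound at room temperature in 100 mM sodium acetate pH 5.5, 5 mM DTT, 0.00005% Triton X-100. Reaction started with 2 uM Z-FR-AMC; AMC fluorescence increase over 60 s gives rate.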
# Lassa entry inh: blocks Lassa virus binding to or entry into cells. Potency, µM (titrated, usually from 37.9 µM), inactives show at the highest dose activity change, negative = inhibition, actives largely listed as inhibitors. AID 540256. Lassa virus pseudotype entry inhibition, cell reporter; control for the full effect not named in the record. hit rate 1.2% among 300,000; active means well fitted inhibition curve with a large enough effect; inconclusive means small, poorly fitted or top-dose-only effect, or effect the other way; inactive means flat fitted curve, though single readings scatter; tested in HEK293 cells; further: on the % scale 0 is the no-effect control and ±100 the full control effect; nearly all actives have a fitted effect of over 50% in size; luciferase read-out
# Cruzain inh Det: cruzain (T. cruzi) inhibition with detergent | P25779 | purified cruzain, Z-FR-AMC fluorescence, 0.01% Triton | Potency, µM, for inactives: max response, negative = inhibition, hits mostly inhibitors | hit rate 0.43% among 200,000 | AID 1478;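 further: plate controls were neutral wells for no effect and buffer without enzyme for full effect; nearly all actives have a fitted effect of over 40% in size; top concentration of the series not given in the record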
#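 Cysteine protease activity tested under reducing, mildly acidic conditions (100 mM sodium acetate pH 5.5, 5 mM DTT) plus 0.01% Triton X-100. Cruzain 1.5 nM; substrate Z-FR-AMC 2 uM; 15 min compound preincubation at room temperature.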
# MARV entry inh: blocks Marburg virus binding to or entry into cells; Potency, µM (titrated, usually from 37.8 µM), without a hit: at the top dose activity change, negative = inhibition, most hits filed as inhibitors; hit rate 1.8% among 300,000; AID 540276; Marburg virus pseudotyped entry inhibition, cell reporter; control for the full effect not named in the record; about a third of the inactives were read at about 46 µM; active = well fitted inhibition curve with a large enough effect; inconclusive = small, poorly fitted or top-dose-only effect, or effect the other way; inactive = flat fitted curve, though single readings scatter; tested in HEK293 cells; about a fifth of its hits are not listed in these tables; further: on the % scale 0 is the no-effect control and ±100 the full control effect; luciferase read-out
# NS1 inh: influenza NS1 inhibition | S. cerevisiae slowed by influenza A NS1, growth recovery by OD600 | Potency, µM (doses to about 46.1 µM), without a hit: at the top dose activity, positive = more growth | hit rate 0.4% among 270,000 | AID 2326; active means well fitted rising curve with a large enough effect; inconclusive means small, poorly fitted or top-dose-only effect; inactive means no such curve, though single readings can be large or run the other way; further: nearly all actives have a fitted effect of over 50% in size
#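 S. cerevisiae expressing influenza A NS1, grown in glucose, washed, then diluted 1:100 into pH 6.0 -URA galactose medium with 23 nl compound. Growth recovery read as OD600; NS1-free strain serves as control.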
# * = called active by the depositor; ? = inconclusive; · = no result given; & = joins results of further samples; [ ] = another dose, or the depositor's remark. Unless noted, the call rests on the fitted dose curve; in most records, active means well fitted curve in the direction sought with a large enough effect; inconclusive means small, poorly fitted or top-dose-only effect, or another doubt; inactive means no such curve, though single readings can be large; an effect the other way counts as inactive or inconclusive. Potency means the concentration at half of the fitted maximal effect. Rows are unselected, and some 4.7% of all compounds hit somewhere here.
SMILES,RE007 growth inh,SARS PLP yeast,2A StopGo,Cruzain inh noDet,Lassa entry inh,Cruzain inh Det,MARV entry inh,NS1 inh
CC(=O)N1CCc2c(sc3c2c(=O)n(-c2ccccc2C)c(=O)n3CC(=O)c2ccccc2)C1,·,·,0%,?,·,-1.4%,11%[46.1 µM],·
CC(=O)Nc1cc(S(=O)(=O)Nc2cccc(C)c2)c(C)cc1C,-19%,5%,72%[activator],2%,5%,7.3%,-17%[46.1 µM],-1%
CCc1ccccc1NC(=O)Cn1nnc(C(=O)Nc2ccc(OC)c(OC)c2)c1N,·,·,8%,14%,?,-0.2%,·,·
CSc1nnc(Cc2cc(=O)[nH]c(=O)[nH]2)n1-c1cc(C)ccc1C,-1%,-1%,18%,2%,17%,0.5%,-13%,4%
CC(C)COc1cccc(C(=O)NC(=S)Nc2cccc(NC(=O)c3ccccc3Cl)c2)c1,-2%,-3%,-21%,?,-4%,-1.4%,9%,14%
CCCCn1c(C)cc(/C=C(\C#N)C(=O)O)c1C,3%,-7%,-11%,14%,2%,-8.2%,-2%,14%
CCc1nn(C(C)C(=O)NCCc2ccc(OC)c(OC)c2)c(=O)c2cc3occc3n12 (centres undefined),20%,0%,-1%,8%,6%,1.2%,?,-16%
O=C(c1cc(S(=O)(=O)N2CCOCC2)c(Cl)cc1Cl)N1CCCCC1,-6%,4%,14%,14%,-5%,2.1%,-1%,2%
Cc1cc(C)nc(N2CCC(C(=O)NCc3cccs3)CC2)n1,5%,-2%,24%,-10%,-14%[14.3 µM],-0.9%,0%,-1%
COc1cc(N=Nc2cccc(S(N)(=O)=O)c2)c2ccccc2c1N,-5%,-2%,?,-10%,-4%[46.1 µM],-1.4%,9%[46.1 µM],-3%&-13%
CC1Cc2cc(S(=O)(=O)N3CCN(c4ccccc4F)CC3)ccc2N1C(=O)C1CC1 (centres undefined),3%,-5%,-16%,·,?,·,?,8%
COc1ccccc1NS(=O)(=O)c1ccc(NC(=O)N2CCCCC2)cc1,7%,-5%,-13%,·,-6%,·,-18%,-3%
CC1CC1c1ccc(/C=C(\C#N)C(=O)Nc2ccccc2Cl)o1 (centres undefined),2%,-31%,44%[activator],17%,11%,-6.0%,?,-15%
Cc1ccccc1N(C(=O)CNC(=O)c1ccco1)C(C(=O)NC1CCCCC1)c1ccncc1 (centres undefined),-7%,0%,24%,·,-7%,·,-3%[46.1 µM],-10%
COC(=O)c1ccc(NC(=O)CN2CCN(c3cccc(Cl)c3)CC2)cc1,0%,-13%,-29%,-2%,-6%,-2.6%,-12%,-80%
CCOC(=O)C1(c2nc(N)cs2)COC(=O)C1 (centres undefined),5%,-10%,0%,-11%,0%,-1.0%,7%,-15%
CCCCOc1ccc(NC(=O)C(=O)NCCCn2ccnc2)cc1,-1%,?,-15%,2%,13%,-3.0%,?,-5%
Cc1c(N)ccc(-n2nc3ccccc3n2)c1C,-6%,·,29%,·,26%,·,2%[14.2 µM],·
O=C(COc1ccc(Cl)cc1Cl)N1CCCC1,-7%,-3%,·,1%,12%,2.8%,-4%,0%
Cc1cccc(C(C)Nc2ccc([N+](=O)[O-])cn2)c1 (centres undefined),10%,-20%,-20%,-21%,1%,-11%,-2%,-23%
O=C(NCCF)[C@H]1C[C@@H]1[C@H](NP(=O)(c1ccccc1)c1ccccc1)c1ccccc1,-5%,20%,5%,14%&4%,3%,5.3%&8.6%,2%,7%
COc1ccc(-n2c(-c3ccccc3[N+](=O)[O-])nc3ccccc3c2=O)cc1,9%,-2%,?,·,1%[46.1 µM],·,4%[46.1 µM],-4%
CC(C)c1ccc(NC(=O)C2CCN(S(=O)(=O)c3ccc(Br)s3)CC2)cc1,·,·,?,2%,-9%[46.1 µM],-4.8%,1%[46.1 µM],·
Cc1ccc(N2C(=O)CS(=O)(=O)CC2=O)cc1,7%,0%,7%,·,22%[46.1 µM],·,?,4%
Cc1ccc(S(=O)(=O)NC(C)c2ccccc2)cc1[N+](=O)[O-] (centres undefined),-1%,3%,-6%,·,4%[46.1 µM],·,-2%[46.1 µM],3%
N#C/C(=C(/O)CCl)c1nc2ccccc2[nH]1,-21%,-2%,35µM*,·,?,·,?,·
CCN(CC)CCCN1C(=O)C(O)=C(C(=O)c2ccco2)C1c1ccc(OC(C)C)cc1 (centres undefined),-8%,-1%,10%,-6%,?,0.0%,15%,5%
O=C(Cc1ccc2c(c1)OCCO2)N1CCN(S(=O)(=O)c2cccs2)CC1,-22%,-1%,-22%,·,?,·,-1%[46.1 µM],·
NC(=O)CSc1nnc(NC(=O)c2ccc(S(=O)(=O)N3CCCCC3)cc2)s1,21%,0%,6%,·,-26%,·,?,·
CC1CCCC(C)N1CC(O)Cn1c2ccccc2c2ccccc21 (centres undefined),5%,-9%,-22%,·,·,·,·,-6%
COc1ccc(C(CC(=O)Nc2ccc(C)cn2)N2Cc3ccccc3C2=O)cc1OC (centres undefined),·,·,0%,-6%,12%[46.1 µM],-1.4%,·,·
COc1ccc(S(=O)(=O)N2CCOC2CNC(=O)C(=O)NCCN2CCOCC2)cc1C (centres undefined),12%,2%,-5%,·,-17%,·,7%,5%
O=C(NNC(=O)c1csc(-c2cnccc2C(F)(F)F)n1)c1ccc(C(F)(F)F)cc1,-5%,0%,-13%,·,-11%,·,-28%,2%
CC1(C)CC(NC(=O)C23CCC(C)(C2Br)C3(C)C)CC(C)(C)N1 (centres undefined),-7%,1%,-4%,·,-13%,·,-26%,6%
Cc1ccc(NC(=S)NCCc2ccc(S(N)(=O)=O)cc2)cc1C,11%,15%,-21%,-2%,-1%,-3.5%,-14%,6%
CCC(=O)N1CCN(c2ccc(NC(=S)NC(=O)c3cccc([N+](=O)[O-])c3)cc2)CC1,3%,-4%,?,?,6%,-3.7%,-25%,16%
CC1Sc2ccc(S(=O)(=O)CCC(=O)NCc3ccccc3)cc2NC1=O (centres undefined),3%,4%,-10%,·,·,·,·,1%
CCOc1ccc(-n2c(C)cc(/C=N/N(C)C)c2C)cc1,1%,0%,-20%,·,·,·,·,4%
Cn1c(SCc2ccccn2)nnc1-c1cnccn1,-18%,0%,34%[activator],12%,13%,3.3%,?,1%
CCOc1ccc(CC2S/C(=N/N=C/c3ccco3)NC2=O)cc1 (centres undefined),6%,2%,4%,·,?,·,-16%[46.1 µM],·
O=C(CCNS(=O)(=O)c1ccc(Cl)cc1)NCc1cccnc1,7%,0%,18%,10%,-2%,2.3%,-2%,7%
Cc1cccc(C)c1NC(=O)CSc1nnc(-c2cccnc2)o1,-6%,0%,-11%,·,·,·,-2%[46.1 µM],·
CC(C(=O)NN=C(c1ccccc1)c1ccccc1)N1CCOCC1 (centres undefined),6%,0%,-19%,·,-17%,·,-2%,-2%
CCN(CC)S(=O)(=O)c1ccc(S(=O)(=O)N2CCN(C(=O)c3ccco3)CC2)cc1,8%,-10%,2%,14%,-3%,-1.0%,14%,0%
CC1CCCCN1C(=O)CSc1nc(-c2ccccc2)cc(=O)[nH]1 (centres undefined),26%,-2%,7%,2%,-6%,-5.9%,4%[46.1 µM],-10%
Cc1nc2ccccc2c(=O)n1NC(=O)c1cncc(Br)c1,36%,2%,-12%,·,-3%,·,-1%[46.1 µM],·
COc1cccc(CNc2nc3ccc(NC(C)=O)cc3s2)c1,12%,·,19%,·,-1%[46.1 µM],·,16%[46.1 µM],·
O=C(O)c1cnc(-c2ccccc2)nc1C(F)(F)F,1%,0%,-9%,·,14%,·,5%[46.1 µM],1%
Oc1ccc(-c2nccc(-c3ccc(Br)cc3)n2)cc1,14%,-4%,47%[activator],·,·,·,·,3%
CC(C)Oc1ccc(/C=C/C(=O)NCC2COc3ccccc3O2)cc1 (centres undefined),9%,-3%,-6%,·,?,·,?,-58%
COc1ccc(CCN(C)C(=O)CCCN2C(=O)c3cccc4cccc(c34)C2=O)cc1OC,15%,-6%,-25%,·,-6%,·,-38%,-10%
CCCn1c2ccccc2c2cnn(CC(=O)N3CCN(c4ccccc4)CC3)c(=O)c21,·,·,-11%,2%,1%[46.1 µM],-4.7%,·,·
O=C(COC(=O)c1ccccc1Br)Nc1ccccc1F,-6%,-3%,14%,·,1%[46.1 µM],·,10%[46.1 µM],-1%
CCOC(=O)N1CCN(C(=O)CCSc2ccc(C)cc2)CC1,?,-26%,1%,7%,?,-0.3%,6%,0%
Cc1ccc(C(=O)NCc2ccccn2)o1,·,6%,-17%,-7%,11%,-0.3%,?,5%
CCCc1cc(=O)oc2cc(OCC(=O)NCCCN3CCOCC3)ccc12,-10%,-2%,-16%,·,14%[46.1 µM],·,0%[46.1 µM],-8%
CN(C)CC[n+]1ccc(C(=O)c2ccccc2)cc1,1%,-1%,-14%,·,9%,·,2%,9%
NC(=S)N/N=C/c1ccc(C(F)(F)F)cc1,-4%,?,-4%,?,?,-26%,-21%,-68%
CCCCOC(=O)C1C2C=C[C@]3(CN(CCCOC)C(=O)[C@H]13)O2 (some centres undefined),24%,-3%,-25%,-6%,-6%,3.1%,1%,-10%
CCOC(=O)C1CCN(CC(O)COc2ccc(C(C)(C)C)cc2)CC1 (centres undefined),11%,23%,?,12%,?,4.2%,?,-4%

# Other entries follow:
SMILES,RE007 growth inh,SARS PLP yeast,2A StopGo,Cruzain inh noDet,Lassa entry inh,Cruzain inh Det,MARV entry inh,NS1 inh
COc1ccc(NCc2cc(=O)[nH]c3ccccc23)cc1,4%,0%,-4%,·,12%,·,-1%,-2%
Cn1c(SCC(=O)N2CCCC2)nnc1-c1ccc(S(=O)(=O)N2CCCC2)cc1,-2%,1%,-8%,3%,-8%,8.9%,-22%,-9%
Cc1ccc(C)c(N2CCN(C(=O)CCc3c(C)nc4c(c3C)c(=O)n(C)c(=O)n4C)CC2)c1,·,·,-13%,1%,19%[46.1 µM],1.1%,-7%[46.1 µM],·
CC(C)C(=O)N1CCN(c2cc(N3CCN(C)CC3)c(F)cc2[N+](=O)[O-])CC1,2%,-2%,-16%,·,5%,·,4%,·
